Source: PubChem
ugtP null kill = compounds lethal to S. aureus RN4220 ugtP deletion mutant; OD600 growth, 16 h; some inactives read as strong as hits; growth inhibition, % (no concentration beside the values); 330,000 compounds, 0.54% hits; AID 1259309;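 active = z-score under -3 and OD600 up to 0.15 on both plates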;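 also: plate controls were untreated wells for no effect and antibiotic for full effect; wells of about 80 µL received 100 nL stock; the first replicate is given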
PrP UTR inh = inhibition of PrP 5' UTR reporter expression; 340,000 compounds, 0.35% hits; AID 488862; inhibition, % (concentration not given with the values); cell-based PrP 5' UTR mRNA reporter, plate reader;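 active = every replicate at 50% or more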;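 also: 0 = median of the neutral control wells; tested in H4 reporter cells; numbers are from one replicate; inactives centre near -14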
RN4220 kill = S. aureus RN4220 growth inhibition; inhibition, % (concentration not given with the values); AID 1259311; OD600, 16 h; 330,000 compounds, 0.33% hits;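 active = z-score of -3 or lower and OD600 up to 0.18 on both plates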;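 also: plate controls were untreated cells for no effect and reference antibiotic for full effect; stock transfer was 100 nL into about 80 µL; one replicate is shown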
Mtb hypoxia rep = reduces hypoxia-regulated biosensor signal in M. tuberculosis; M. tuberculosis hypoxia-regulated fluorescent reporter, fluorescence; 300,000 compounds, 0.1% hits; fluorescence inhibition, % (concentration not given with the values);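 active = 35 to 45% if threefold the growth effect, above 45% if 1.5-fold the growth effect; inactive = the rest, general growth blockers included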;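 also: wells of about 50 µL received 100 nL stock; 0% = vehicle wells and 100% = reference inhibitor wells; whole bacteria with a GFP reporter of the hypoxia response; strong numbers were not always called active; many hits fall short of the cut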
Bead autofluor = counter-screen for toxin protease inhibitors: compound fluorescence; AID 624483; compound autofluorescence counterscreen, microsphere flow cytometry; stronger effect = higher value; fluorescence intensity (no concentration beside the values); 360,000 compounds, 3.1% hits;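 active = at least 3 SD above the mean of all compounds, about 16000 in these data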;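 also: 100 nL of 1 mM stock went into each well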
BJeLR viability = BJeLR cell viability loss | 300,000 compounds, 0.17% hits | BJeLR (HRASV12) viability, CellTiter-Glo ATP luminescence, 48 h; reference of the scale not given here | AID 1554 | inhibition, % (test concentration not listed);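 active = replicate mean above 50%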;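 also: 50 nL library stock added to about 25 µL; numbers are from one replicate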
Mtb hypoxia rep growth = also measured in Mtb hypoxia rep; calls as there; growth inhibition, %; measured here: M. tuberculosis growth (absorbance);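 0% = vehicle and 100% = reference antibiotic; read after six days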
* = called active by the depositor; / = not tested or not shown.

nr	Molecule	ugtP null kill	PrP UTR inh	RN4220 kill	Mtb hypoxia rep	Mtb hypoxia rep growth	Bead autofluor	BJeLR viability
1	COc1ccc(C(=O)N[C@H](C(=O)OCc2nc3ccsc3c(=O)[nH]2)C(C)C)cc1	10.8	-14.3	4.7	-2.4	-3.4	13187	1.6
2	CCSc1nsc(NC(=O)Nc2cccc(C(C)=O)c2)n1	-16.2	-26.0	7.5	1.9	0.5	3619	-2.2
3	CCN(CC)c1ccc(/C=N/NC(=O)c2cccc(S(=O)(=O)Nc3ccccc3OC)c2)c(O)c1	/	51.5	/	/	/	2679	59.8*
4	c1ccc2nc(-c3nc4ccccc4o3)ccc2c1	0.8	/	1.5	5.9	8.2	11703	53.4*
5	CC(C)c1ccc(C2CC(=O)c3cnc(N4CCc5ccccc5C4)nc3C2)cc1 (stereo not given)	6.8	-5.5	-4.0	-0.7	1.1	14793	6.3
6	CCN(CC)CCN1C(=O)C(=O)/C(=C(/O)c2ccc(S(=O)(=O)N3CCOCC3)cc2)C1c1ccc(C(C)(C)C)cc1 (stereo not given)	4.5	-7.4	-1.9	7.3	17.1	3630	5.5
7	CCN(CC)S(=O)(=O)c1ccc(C(=O)OCC(=O)N2CCOCC2)cc1	4.6	-5.9	1.6	7.8	4.1	3957	-6.8
8	COc1ccc(CC(=O)Nc2ccc(F)c(Cl)c2)cc1S(=O)(=O)N1CCOCC1	-2.4	-21.4	11.2	8.9	0.1	6836	/
9	COC(=O)c1ccc(C=NN2CCN(Cc3ccc(C)cc3)CC2)cc1	-0.6	/	-1.8	0.0	5.0	/	/
10	CC1(OC(=O)CCc2ccccc2)C(=O)C=C2C=C3CCCN3C=C2C1=O (stereo not given)	-11.0	-18.9	2.9	8.6	4.5	3700	-8.8
11	CC12CCC(CC1=NNC(=O)Nc1ccccc1)C2(C)C (stereo not given)	-8.7	/	6.3	19.3	35.0	/	/
12	Cc1ccc(-c2nc(CS(=O)(=O)CC(=O)NCCCN3CCOCC3)c(C)o2)cc1	4.4	12.6	3.4	0.4	7.1	4488	-1.3
13	COc1ccccc1CCNC(=O)CSc1nc(-c2ccco2)cc(C(F)(F)F)n1	4.8	-13.9	7.0	6.9	4.3	5730	5.9
14	CCC1(NC(C)=O)CC2CC1CC2NC(C)=O (stereo not given)	3.3	-14.8	3.3	11.3	2.9	15577	8.3
15	Cc1ccsc1C(=O)OCC(=O)NC1CCCC1	0.7	-66.9	0.9	-1.9	-1.3	4536	/
16	Cc1nn(Cc2ccc(Br)cc2)c(C)c1NC(=O)c1nn(C)cc1Cl	1.1	-24.4	4.2	-1.9	7.6	2227	3.7
17	c1ccc(-n2nnc3c(N4CCOCC4)ncnc32)cc1	13.8	15.1	7.1	7.7	7.2	9305	6.6
18	CCc1ccc(OCC(=O)NC(=S)Nc2ccc(F)cc2)c(Br)c1	-9.1	-35.3	0.9	1.8	-2.0	8079	8.0
19	O=C(COC(=O)c1ccc[nH]c1=O)NC1CCCC1	5.5	-4.8	0.5	/	/	2337	-0.2
20	COC(=O)C1=C(C(C)=O)C(c2ccc(C)cc2)n2nnnc2N1 (stereo not given)	1.3	2.5	1.5	/	/	2337	-10.1
21	Nc1ccccc1-c1nc2ccccc2[nH]c1=O	2.3	-17.2	2.2	10.1	7.6	3653	-4.6
22	OCC1CCCN(C(=S)Nc2ccc(Oc3ccccc3)cc2)C1 (stereo not given)	3.9	-53.0	1.5	5.1	0.0	3259	7.9
23	CCCCC1CCC(C(=O)OCC(=O)Nc2ccc(S(N)(=O)=O)cc2)CC1 (stereo not given)	29.9	-23.6	3.4	1.7	12.0	2054	2.6
24	CCOCCCNC(=O)Cn1cnc2c(cnn2-c2ccc(OC)cc2)c1=O	/	-35.6	/	/	/	3884	-4.3
25	CN(C(=O)COc1cc(=O)n(C)c2ccccc12)c1cccc(Cl)c1	10.4	-9.9	9.1	/	/	5740	0.2
26	c1ccc(C2CC3CC4(CCCC4)N2O3)cc1 (stereo not given)	16.5	-20.4	3.0	9.4	-4.9	8017	-2.3
27	CC1CCN(CCCNc2cc(NCCO)c([N+](=O)[O-])c3nonc23)CC1	/	-38.5	/	/	/	3670	0.6
28	CC(NC(=O)CNC(=S)N(Cc1cccs1)C1CCCC1)c1ccccc1 (stereo not given)	3.3	1.1	0.6	2.9	3.9	4683	9.3
29	Cn1c(=O)[nH]c(=O)c2c1nc(N1CCOCC1)n2CCN1CCOCC1	-3.2	0.3	-6.8	0.5	8.5	2915	0.6
30	O=C(c1ccc(OC2CCN(CCCc3ccccc3)CC2)cc1)N1CCCC1	8.9	-19.5	2.0	-7.9	-9.2	4234	1.3
31	COC(=O)[C@]1(C)N[C@H](CN(C)C(=O)c2ccc(F)cc2)[C@@H]2C(=O)N(C)C(=O)[C@@H]21	11.3	0.6	5.3	-5.8	-2.2	2996	/
32	CC(C)(CNC(=O)c1cccc(F)c1)CNC(=O)c1cccc(F)c1	16.3	-2.6	2.5	-6.9	5.0	4038	-3.6
33	CCCCCCCN1CCC(=O)N([C@H](CO)CC(C)C)CC1	/	-13.0	/	/	/	4083	6.5
34	COc1cc(OC)cc(-c2nnc(SCC(=O)NCc3cccs3)o2)c1	4.8	-17.0	3.0	3.4	2.7	7859	3.5
35	NS(=O)(=O)c1ccc(NC(=S)N2CCN(Cc3ccc(Cl)c(Cl)c3)CC2)cc1	-0.8	-26.8	0.3	-6.4	-7.1	4720	6.4
36	O=C(c1n[nH]c(=O)c2ccccc12)N1CCN(Cc2ccc3c(c2)OCO3)CC1	15.4	-1.7	3.1	4.1	9.2	4175	-8.6
37	COC(=O)C1(C)NC(=O)c2ccccc2N1 (stereo not given)	1.4	-34.1	1.8	/	/	5895	-2.6
38	Cc1ccc2c(c1)N=C(c1ccccc1)CC(C(Cl)Cl)=N2	45.0	-79.7	7.5	-1.2	0.7	/	11.7
39	COCCn1c(C)cc(C(=O)COc2ccc(N(C)S(=O)(=O)c3ccc(C)cc3)cc2)c1C	2.9	-14.6	2.7	0.4	-7.2	4131	/
40	CCN1CCN(c2ccc(S(=O)(=O)N3CCCCC3)cc2NC(=O)c2ccc(F)cc2)CC1	3.1	-27.8	6.3	2.7	6.2	2332	15.8
41	CCOc1ccc(C=NNc2ccc(S(=O)(=O)Nc3ccccc3C(=O)O)cc2[N+](=O)[O-])cc1	91.2*	-14.4	-5.8	13.5	15.8	3861	/
42	COc1ccc(/C=C/C=NNC(=O)COc2ccc(OC)cc2)cc1	-9.4	/	4.4	0.5	-1.7	/	/
43	COc1ccc(OC(C)C(=O)Nc2cccc([N+](=O)[O-])c2)cc1 (stereo not given)	-18.2	-20.4	-1.9	-2.2	7.9	6924	9.4
44	C/C(CC(=O)Nc1ccc(Cl)cc1Cl)=N\NC(=O)c1cnccn1	/	3.2	/	/	/	4168	-7.6
45	O=C(Oc1ccc(C(=S)N2CCOCC2)cc1)c1ccc(F)cc1	15.1	-12.4	6.9	7.1	5.1	3682	-1.1
46	O=C1CCCN1c1cc(Cl)cc(Cl)c1	-0.5	-7.7	4.8	7.2	-4.2	2643	-5.4
47	C[C@@H](N)Cc1cnc[nH]1	/	-23.0	/	/	/	5575	-0.3
48	CCN(C(=O)COc1cc(OC)ccc1C(C)=O)C1CCS(=O)(=O)C1 (stereo not given)	7.5	-10.0	4.3	-5.3	3.8	3577	/
49	CCCc1ccc(NC(=O)C2CCN(c3cnccn3)CC2)cc1	3.8	2.0	0.4	-2.4	6.2	5727	-1.7
50	Cc1cc(C)c(NC(=O)CS(=O)CC(=O)NCCN2CCCCCC2)c(C)c1 (stereo not given)	8.2	-7.8	5.3	-7.8	-12.8	3406	-5.1
51	COC(=O)C1=C(C)N(c2cc(C)cc(C)c2)/C(=C/c2ccco2)C1=O	-18.9	9.1	36.5	7.1	2.0	3514	-10.4
52	COc1ccc(C(=O)NC(C)c2cccnc2)cc1S(=O)(=O)N(C)Cc1ccccc1 (stereo not given)	-0.8	3.1	0.9	9.3	3.4	7503	/
53	CC1C(=O)NN=C1C(=O)N/N=C/c1cccs1 (stereo not given)	/	-14.4	/	/	/	5567	3.4
54	CCCOc1ccc(C(=O)CCNc2ccc(C)c(Cl)c2)cc1	1.7	-21.2	-1.7	-0.5	-8.2	9524	4.4
55	CC(=O)Nc1ccc(-n2nnnc2SCC(=O)NC2CCCC2)cc1	5.3	-9.8	6.5	4.1	-5.3	5372	5.3
56	Cc1ccccc1CSc1nc2c(c(=O)[nH]1)CCCC2	1.7	/	2.0	14.3	12.0	/	0.5

(list continues)
nr	Molecule	ugtP null kill	PrP UTR inh	RN4220 kill	Mtb hypoxia rep	Mtb hypoxia rep growth	Bead autofluor	BJeLR viability
57	CC(Cn1nnc([N+](=O)[O-])n1)=NNC(=O)c1ccccc1	77.8	/	23.1	-2.2	-13.1	/	/
58	COC(Cn1c2c(c3cc(C)ccc31)CCCC2NCc1ccccc1)OC (stereo not given)	26.4	/	2.5	-5.4	-8.3	3556	-1.9
59	O=C(NCC1COc2ccccc2O1)C1CCCN(S(=O)(=O)c2cccc3cccnc23)C1 (stereo not given)	3.3	8.0	-0.5	/	/	4508	/
60	CCCS(=O)(=O)c1nc(S(=O)(=O)c2ccc(C)cc2)c(N2CCN(CCO)CC2)s1	3.1	-2.0	0.9	4.2	2.9	5325	-6.4
61	CCN1C(=O)N[C@@H](c2cccc(C(F)(F)F)c2)C(C(=O)OC)=C1C	/	-5.8	/	/	/	2796	5.0
62	O=C1C(Cl)=C(NC2CCCCC2)C(=O)N1Cc1ccccc1	6.7	-16.6	0.4	-16.7	-9.4	4593	3.7
63	COc1ccc(Cl)cc1NC(=O)CN(C)CC(=O)Nc1ccccc1N1CCOCC1	-0.5	-13.1	2.4	2.9	-0.6	4134	41.0
64	OC1(c2ccc(Br)cc2)CN(c2ccccc2)C2=[N+]1CCS2 (stereo not given)	13.9	-21.0	7.4	5.8	5.9	3315	7.5

Some of these compounds in order of heavy-atom count, ascending.
nr	Molecule	ugtP null kill	PrP UTR inh	RN4220 kill	Mtb hypoxia rep	Mtb hypoxia rep growth	Bead autofluor	BJeLR viability
46	O=C1CCCN1c1cc(Cl)cc(Cl)c1	-0.5	-7.7	4.8	7.2	-4.2	2643	-5.4
33	CCCCCCCN1CCC(=O)N([C@H](CO)CC(C)C)CC1	/	-13.0	/	/	/	4083	6.5
48	CCN(C(=O)COc1cc(OC)ccc1C(C)=O)C1CCS(=O)(=O)C1 (stereo not given)	7.5	-10.0	4.3	-5.3	3.8	3577	/

More compounds follow.
nr	Molecule	ugtP null kill	PrP UTR inh	RN4220 kill	Mtb hypoxia rep	Mtb hypoxia rep growth	Bead autofluor	BJeLR viability
65	CCCn1nnc(NC(=S)NC(=O)CC)n1	0.7	-4.8	1.9	8.2	15.3	4078	2.6
66	N#Cc1ccc(C(=O)OCC(=O)Nc2cccnc2Cl)cc1	-0.5	11.7	-1.4	-1.6	9.0	3910	/
67	Cn1c(C(=O)N2CCCc3ccccc32)cc2c(=O)n3ccccc3nc21	-4.1	/	5.6	-84.3	-16.0	/	2.4
68	CC(C)(C)C(=O)Nc1ccc(S(=O)(=O)N2CC3CC(C2)c2cccc(=O)n2C3)cc1 (stereo not given)	-1.4	-1.9	1.4	11.1	9.7	5605	-1.7

This is a random part of the collection, and some 4% of all compounds hit somewhere here.
